# Assay outcomes deposited in PubChem by National Center for Advancing Translational Sciences (NCATS).
# 2A Renilla – Primary qHTS Assay for Foot and Mouth Disease Virus Antivirals against NCGC Sytravon and CBC Compound Libraries: Renilla Luciferase Signal; AID 1745857, 2022; Potency, µM (titrated, usually from 57.5 µM), for the others: top-dose signal change, negative = less light; HEK cells with a luciferase reporter of 2A StopGo recoding; actives 0.32% (n = 120,000); active means well fitted falling curve with a large enough effect; inconclusive means small, poorly fitted or top-dose-only effect; inactive means no such curve, though single readings can be large or run the other way; further: nearly all actives have a fitted effect of over 55% in size; overnight with compound
# StopGo FLuc – Primary qHTS Assay for Foot and Mouth Disease Virus Antivirals against NCGC Sytravon and CBC Compound Libraries: Firefly Luciferase Signal; HEK cells with a luciferase reporter of 2A StopGo recoding; Potency, µM (doses to about 57.5 µM), without a hit: top-dose signal change, negative = less light; actives 0.23% (n = 120,000); AID 1745856, 2022; active = well fitted falling curve with a large enough effect; inconclusive = small, poorly fitted or top-dose-only effect; inactive = no such curve, though single readings can be large or run the other way; further: nearly all actives have a fitted effect of over 60% in size; overnight with compound
# An asterisk follows results filed as active; ? = inconclusive; & = joins results of further samples; [ ] = dose if it differs, or a comment. On the % scale 0 is the no-effect control and ±100 the full control effect; potency means the concentration at half of the fitted maximal effect.
SMILES,2A Renilla,StopGo FLuc
CCNC(=O)N(C)[C@H]1C[C@H]2c3[nH]c4cccc(-c5cccc(F)c5)c4c3CCN2C(=O)[C@H]1[C@H](C)O,6%,0%
O=C(O)c1cccc(-c2noc(-c3ccccc3F)n2)c1,-6%,2.5µM*
Cc1cccc(CNC(=O)c2cc(-c3ccncc3)nc3ccccc23)c1,20%,16%
Cc1ccccc1OCC(=O)Nc1cc(C(F)(F)F)ccc1N1CCOCC1,24%,18%
CCOC(=O)CSc1nc(-c2ccc(F)cc2)cc(C(F)(F)F)c1C#N,-10%,-18%
Cc1nn(C)c2ncc(NC(=O)CCc3ncc(-c4ccccc4F)o3)cc12,1%,20%
C#Cc1cccc(NS(=O)(=O)c2ccc(OC)c3ncccc23)c1,67%[activator],-7%
CC1CCC(NC(=O)c2cc(-c3ccccc3)nc3ccccc23)CC1 (stereo not given),33%[activator],-8%
CCC1CCCCN1S(=O)(=O)c1ccc(C(=O)Nc2sc3c(c2C(N)=O)CCC3)cc1 (stereo not given),-4%,-3%
CCOC(=O)NC(=O)COC(=O)CNC(=O)c1cccc(C)c1,-5%,-12%
Cc1cc(Cl)ccc1OCC(=O)N(Cc1ccc(N(C)C)cc1)CC1CCCO1 (stereo not given),-9%,-8%
O=C(CCc1cc2ccccc2o1)NC1CCCCC1,3%,0%
CC(=O)N1c2ccccc2C(=O)C1N1CCN(c2cc(Cl)ccc2C)CC1 (stereo not given),-7%,-6%
COCCCNC(=O)N1CCN(c2nnc(C)c3c(C)n(-c4ccc(Cl)cc4)nc23)CC1,-8%,-15%
C[C@H](NC(=O)[C@@H]1Cc2ccccc2CN1C(=O)OC(C)(C)C)C(=O)NCC1CCCO1 (stereo not given in full),-6%,4%
CCOC(=O)N1CCN(c2ncc3c(n2)CC(c2ccc(OC)c(OC)c2)CC3=O)CC1 (stereo not given),-5%,-2%
CCC(C)c1ccc(NC(=O)N2CCN(Cc3ccc(Cl)s3)CC2)cc1 (stereo not given),-8%,17%
CCCc1cc(=O)[nH]c(Nc2ccc(OCC)cc2)n1,25%,0%
CCOc1cccc(C2c3[nH]c4ccccc4c3CCN2C(=O)CSCc2ccc(F)cc2)c1 (stereo not given),-2%,11%
CCCn1nc(C(=O)OCCO)c2ccccc2c1=O,-5%,-6%
CC(C#N)(NC(=O)CSc1ccc2ccccc2n1)C1CC1 (stereo not given),-8%,2%
OC1CCN(Cc2csc(-c3ccccc3)n2)CC1,1%,141%[activator]
CC(C)(CNC(=O)CC1CCCC1)C(N)=O,-10%,-8%
CC(Oc1cc(Cl)ccc1Cl)C(=O)Nc1ccnn1C(C)C (stereo not given),3%,-5%
Nc1ccc(C(=O)Oc2ccccc2)c(O)c1,18%,68%[activator]
O=C(NCCc1ccccn1)c1cc(-c2ccncc2)nc2ccccc12,14%,-7%
Fc1ccccc1COc1ccc(Br)cc1CNc1nn[nH]n1,?,?
COc1ccc(OC)c(CCNc2ncnc3onc(-c4ccc(Cl)cc4)c23)c1,8%,1%
C=C(C)Cn1c(=O)c2c(ncn2Cc2ccco2)n(Cc2ccccc2)c1=O,-5%,-16%
COc1ccc(N2CCN(CCCNC(=O)c3ccc4nc(Cc5ccccc5)oc4c3)CC2)cc1,?,?
C/C(=C\c1ccc([N+](=O)[O-])cc1)C(=O)c1ccccc1,-1%,0%
N=C(N)N1CCN(c2ccccc2)CC1,-3%,2%
CCn1c(SCC(=O)Nc2cc(C)ccc2F)nnc1-c1ccccc1O,61%[activator],2%
CCC(C)NC(=O)c1sc2nc(C)c(C(=O)Nc3ccc(C)cc3C)c(-c3ccc(NC(C)=O)cc3)c2c1N (stereo not given),-9%,-26%
CCOc1cc2cc(C(=O)c3cc(C)ccc3O)cnc2cc1OC,19%,3%
Cc1onc(-c2ccccc2)c1-c1nnc(CSc2nnnn2C2CCCCC2)o1,-22%,?
CCC(C)NC(=O)CSc1nc2cc3c(cc2c(=O)n1CCCC(=O)NCc1ccc2c(c1)OCO2)OCO3 (stereo not given),-17%,-25%
COc1ccc(CCNC(=O)CCCn2nc(C)c3sc4ccccc4c3c2=O)cc1OC,-7%,-6%
CCCCn1c(N)c(N(Cc2ccco2)C(=O)c2cccnc2OCC)c(=O)[nH]c1=O,-3%,0%
CCOc1ccc(NC(=O)CNS(=O)(=O)c2ccc(Br)s2)cc1,33%[activator],-9%
Cc1c(C)c2ccc(OCC(=O)NCCCO)cc2oc1=O,21%,78%[activator]
CSc1ccccc1NC(=O)c1c(F)cccc1F,4%,0%
CCOC(=O)N1CCN(C(=O)c2cc3cc(C)ccc3[nH]2)CC1,8%,39%[activator]
COC(=O)C1CCN(C(=O)Cn2nc(C(=O)O)c3ccccc3c2=O)CC1,-3%,7%
CC1=C(C(=O)Nc2ccc(Cl)cc2)C(c2ccc(C(F)(F)F)cc2)n2nnnc2N1 (stereo not given),5%,-5%
COCCN1C(=O)c2[nH]nc(-c3ccccc3O)c2C1c1ccc(OCc2ccccc2)c(OC)c1 (stereo not given),?,?
Cc1cc(CNC(=O)COc2ccc3ccccc3c2)c2ccccc2n1,-2%,9%
CC(=O)N1CCOc2cc(S(=O)(=O)Nc3cccc(C(F)(F)F)c3)c(Cl)cc21,320%[activator],-4%
CC1=C(C(N)=O)C(c2ccc(F)cc2)n2nc(-c3ccc(N(C)C)cc3)nc2N1 (stereo not given),-11%,-2%
COCc1nnc(NC(=O)CCn2ccc3ccc(Br)cc32)s1,4%,18%

# Following part
SMILES,2A Renilla,StopGo FLuc
COc1ccc(C(C)=O)cc1COC(=O)C1(c2cccc(F)c2)CCCC1,16%,-6%
O=C(Nc1ccc(Br)cc1)c1cc(S(=O)(=O)N2CCc3ccccc32)ccc1F,15%,18%
Cc1sc(NC(=O)C2CC2)c(C#N)c1C,19%,36%[activator]
c1csc(-c2cc(CSc3nnc(-c4ccncc4)o3)no2)c1,-4%,1%
COc1cc(OC)c2cc(C(=O)N[C@@H](C)C(=O)Nc3ccc4c(c3)OCCO4)n(C)c2c1,21%,66%[activator]
COCCn1c(SC(C)C(=O)c2cccc(Cl)c2)nnc1-c1ccc(Cl)cc1 (stereo not given),62%[activator],-9%
Cc1cc(C)cc(OCc2cc(=O)n3c(-c4ccccc4)csc3n2)c1,-9%,-5%
COc1ccc(Nc2nc(-c3ccc(OC)cc3)c(CCC(=O)O)s2)cc1,48%[activator],126%[activator]
COc1ccc(Nc2nc(Cl)nc(Nc3cccc([N+](=O)[O-])c3)n2)cc1,-7%,7%
Cc1cc(C)n2nc(C(=O)OCc3cc(=O)oc4cc(C)c(C(C)C)cc34)nc2n1,10%,12%

# Some of the entries so far, bar-delimited.
smiles | 2A Renilla | StopGo FLuc
CCOC(=O)N1CCN(C(=O)c2cc3cc(C)ccc3[nH]2)CC1 | 8% | 39%[activator]
N=C(N)N1CCN(c2ccccc2)CC1 | -3% | 2%
CC1=C(C(N)=O)C(c2ccc(F)cc2)n2nc(-c3ccc(N(C)C)cc3)nc2N1 (stereo not given) | -11% | -2%
C/C(=C\c1ccc([N+](=O)[O-])cc1)C(=O)c1ccccc1 | -1% | 0%
COc1ccc(Nc2nc(Cl)nc(Nc3cccc([N+](=O)[O-])c3)n2)cc1 | -7% | 7%
O=C(O)c1cccc(-c2noc(-c3ccccc3F)n2)c1 | -6% | 2.5µM*

# Further records:
SMILES,2A Renilla,StopGo FLuc
CCOC(=O)c1ccc(NC(=O)CSc2ccc3ccccc3n2)cc1,7%,62%[activator]
Cc1cccc(CNC(=O)c2ccccc2NC(=O)c2cccs2)c1,13%,19%
Cc1cc(=S)[nH]c2ccccc12,4%,-2%
O=C(CSc1nc2ccccc2o1)N(Cc1ccccc1)Cc1ccco1,28%,0%
Cc1cccc(Cn2c(Sc3ncccn3)nc3c2c(=O)[nH]c(=O)n3C)c1,14%,4%
CCCCCCCCCOc1cccc(CNc2cccc3ccccc23)c1,3%,0%
COc1ccc(CN2C(=O)C(=O)c3cc(C)ccc32)cc1OC,10%,5%
CC(C)CCNC(=O)c1ccc2nc(CCc3ccccc3)oc2c1,3%,5%
CC(NC(=O)c1cccnc1Cl)c1ccc2c(c1)CCCC2 (stereo not given),-10%[1.06 µM],?
O=C1C(=O)N(C2CCN(S(=O)(=O)c3ccccc3)CC2)CCN1Cc1ccccc1,-6%,-8%
COC(=O)c1ccccc1NC(=O)Cn1cnc2sc(C)c(S(=O)(=O)N3CCC(C)CC3)c2c1=O,-7%,-9%
CNc1oc(-c2cc(S(=O)(=O)N(C)Cc3ccccc3)c(C)o2)nc1C#N,2%,-4%
CC(=O)Nc1cc(C(=O)NCc2ccc(F)cc2)ccc1S(=O)(=O)c1ccc(C)cc1,6%,13%
Cn1c(=O)c2c(nc(Cl)n2CC(=O)NCc2ccccc2Cl)n(C)c1=O,-10%,-5%
CCOC(=O)C(=O)Nc1ccc(O)c(C(=O)OC)c1,-7%,9%
Cc1ccc2c(=O)cc(C(=O)Nc3sc4c(c3C(=O)NCc3ccco3)CCC4)oc2c1,-13%,-17%
O=C(Cn1c(=O)c2cccn2c2ccc(F)cc21)NCc1cccc(Cl)c1,-5%,-20%
Cc1cc(C)cc(-n2ccn(Cc3ccc(F)cc3)c(=O)c2=O)c1,-5%,-19%
Cc1[nH]c(SCC(=O)NCCc2ccccc2)nc1Cc1ccccc1,12%,0%
O=C(Nc1nnc(S(=O)(=O)N2CCCc3ccccc32)s1)c1ccccc1Br,6%,5%
COC(=O)c1ccc(NC(=O)CN2C(=O)CCc3cc(S(=O)(=O)N4CCCCC4)ccc32)cc1,32%[activator],-9%
CC(C)CCNc1nc(C(=O)Nc2nnc(C3CC3)s2)cs1,-5%,0%
Clc1ccc(COc2ccccc2CNCc2cccnc2)c(Cl)c1,?,?
O=Cc1cc(F)ccc1N1CCOCC1,6%,-2%
CC(C)NC(=O)c1ccccc1NC(=O)Cn1cnc2c1c(=O)n(C)c(=O)n2C,-3%,5%
CCCCn1nc(C(=O)NC2CCS(=O)(=O)C2)c2ccccc2c1=O (stereo not given),-5%,-4%
COc1ccc(C)cc1Nc1ncnc2c1c(-c1ccccc1)cn2-c1ccc(C)cc1,-6%,-1%
COc1cccc(CNC2CC2)c1OCc1ccccc1,-5%,1%
COc1ccc(NC(=C(C#N)C#N)C(F)(F)C(F)(F)F)cc1,-8%,28%
CC(=O)c1ccc(C(=O)NC2CCc3ccccc32)s1 (stereo not given),20%,0%

# Part of the list above in another layout.
# Under each structure: 2A Renilla, StopGo FLuc
CCOc1ccc(NC(=O)CNS(=O)(=O)c2ccc(Br)s2)cc1
  33%[activator], -9%
Cc1c(C)c2ccc(OCC(=O)NCCCO)cc2oc1=O
  21%, 78%[activator]
CSc1ccccc1NC(=O)c1c(F)cccc1F
  4%, 0%
CCOC(=O)N1CCN(C(=O)c2cc3cc(C)ccc3[nH]2)CC1
  8%, 39%[activator]

# (cont.)
SMILES,2A Renilla,StopGo FLuc
CCCN1C(=O)S/C(=C/c2cn(C)c3ccccc23)C1=O,-1%,47%[activator]
CCCNCC1CCCCC1,4%,0%
CCc1nc2sc3c(N4CCC(C)CC4)ncnc3c2c2c1CCCC2,13%,3%
Cc1cccc(NC(=O)CSc2ncc(CO)n2CC(=O)NC2CC2)c1C,-1%,0%
Cn1c(=O)c(=O)n(C)c2cc(S(=O)(=O)N3CCCC3C(=O)Nc3cccc(F)c3)ccc21 (stereo not given),-26%,-23%
CCc1nn(CC(=O)NCCc2ccc(OC)cc2OC)c(=O)c2cc3occc3n12,-8%,-13%
Cc1ccc2c(=O)c(C(=O)c3cccc(Cl)c3)cn(CC(=O)NCc3ccc(F)cc3)c2n1,2%,-27%
O=C(Cn1nc(-c2ccc(Cl)cc2)c2ccccc2c1=O)Nc1cccc(C(F)(F)F)c1,-1%&3%,-3%&-14%
CN(CC(=O)N(C)c1c(N)n(Cc2ccccc2)c(=O)[nH]c1=O)Cc1cccc2ccccc12,-17%,-19%
COc1ccc(NC(=O)Cc2c(C(=O)O)[nH]c3ccccc23)cc1OC,-4%,-9%
COc1ccc(Br)cc1CNC(=O)c1cc(=O)[nH]c2ccc(S(=O)(=O)N3CCCCC3)cc12,-2%,-4%
CSc1ccc(-c2nc3c(C)cccn3c2Nc2ccc3c(c2)OCCO3)cc1,37%[activator],27%
CCCCNC(=O)c1cccc2ccccc12,11%,41%[activator]
CCCCn1nc(C(=O)N2CCCSc3ccccc32)c2ccccc2c1=O,-22%,?
COc1cccc(CNC(=O)c2c(C)oc3ncnc(N4CCOCC4)c23)c1,5%,-10%
O=C(CCn1ccc2ccccc21)NC1CCCCCC1,5%,102%[activator]
COc1ccc(NC(=O)CSc2ccc(-c3cccs3)nn2)cc1,15%,49%[activator]
COc1cc(C(=O)O)c(Br)c(OC)c1OC,-2%,3%
COc1cc(NC(=O)CN2CCN(c3ccc(F)cc3)CC2)cc(OC)c1,9%,-10%
CCCCCCn1nc(C(=O)OCC(=O)Nc2ccc(C(N)=O)cc2)c2ccccc2c1=O,8%,13%
CCn1cc(/C=C(\NC(=O)c2ccc(C)cc2)C(=O)NCCCn2ccnc2)c2ccccc21,179%[activator],-2%
CN(C)c1ccc(C(CNS(=O)(=O)c2ccc(Br)cc2)N2CCOCC2)cc1 (stereo not given),30%,-12%
COc1ccc(CCNS(=O)(=O)c2ccc(F)c(C(=O)Nc3ccc(Cl)cc3)c2)cc1OC,?,?

# Not all compounds are listed; count on the stated rates, not on these rows.
